PINK1 modulator: modulators of PINK1 expression; actives 0.2% (n = 410,000); Potency, µM (series often up to 76.6 µM), without a hit: top-dose activation (PINK1 increase), most hits filed as activators; PINK1 immunofluorescence, high-content cytometry, 24 h; active = well fitted activation curve with a large enough effect; inconclusive = small, poorly fitted or top-dose-only effect; inactive = flat fitted curve, though single readings scatter; cell line not stated here;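 also: potency is read from the fitted curve at half-maximal effect; % of control where 0% means no effect; nearly all actives have a fitted effect of over 65% in size; a mitochondrial uncoupler was the plate control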
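Readout is PINK1 immunofluorescence, quantified alongside mitochondrial, cell and nuclear markers by laser-scanning microplate cytometry. Cells from a stable line were exposed to compound titrations (5 concentrations) for 24 hours, with CCCP controls.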
D2 PAM: potentiates the human D2 dopamine receptor allosterically. actives 0.23% (n = 360,000). potentiation, % (concentration not given with the values). DiscoveRx D2 beta-arrestin cells, luminescence, 90 min; 100% = 57 uM dopamine signal. P14416; active = potentiation of 50% or more; inconclusive = 30% to 50%; inactive = 30% or less;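 also: compound concentration not given in the record; tested on top of an EC20 dose of dopamine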
Target sequence (P14416 whole entry, looked up): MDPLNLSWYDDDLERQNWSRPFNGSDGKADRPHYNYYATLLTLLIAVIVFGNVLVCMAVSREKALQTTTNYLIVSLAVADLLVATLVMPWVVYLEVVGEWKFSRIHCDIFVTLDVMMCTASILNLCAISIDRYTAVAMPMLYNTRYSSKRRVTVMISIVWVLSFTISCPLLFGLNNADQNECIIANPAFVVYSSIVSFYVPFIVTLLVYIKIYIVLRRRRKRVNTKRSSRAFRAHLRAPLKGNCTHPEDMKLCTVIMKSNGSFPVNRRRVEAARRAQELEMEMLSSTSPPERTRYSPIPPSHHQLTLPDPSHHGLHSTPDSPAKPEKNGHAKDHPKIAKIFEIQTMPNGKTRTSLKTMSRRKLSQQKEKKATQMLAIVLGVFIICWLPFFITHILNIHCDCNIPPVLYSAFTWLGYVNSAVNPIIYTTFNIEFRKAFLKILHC
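PathHunter D2 cells, attached overnight at 37 deg C, received compound in DMSO plus dopamine at EC20 (50 nM final) for 90 min at 37 deg C. Beta-arrestin recruitment was read as luminescence after 1 h with detection reagent at ambient temperature.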
TRPML1 blocker: blocks the human TRPML1 channel. TRPML1-inducible cells, Ca2+ dye fluorescence, FDSS; hits give low values; inhibition of EC80 agonist-evoked calcium signal. Q9GZU1. activity change, negative = inhibition, % (test concentration not listed). actives 0.02% (n = 390,000). AID 624415; in the data active means activity change below about -50%; inconclusive means about -30% to -50%; inactive means above about -30%;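 also: stimulus is agonist 54-4 at its EC80 concentration; % is scaled to controls: 0 for no effect and ±100 for the full control effect; compound concentration not given in the record; the text of the record puts the active cut at -80%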
Target sequence (Q9GZU1 whole entry, looked up): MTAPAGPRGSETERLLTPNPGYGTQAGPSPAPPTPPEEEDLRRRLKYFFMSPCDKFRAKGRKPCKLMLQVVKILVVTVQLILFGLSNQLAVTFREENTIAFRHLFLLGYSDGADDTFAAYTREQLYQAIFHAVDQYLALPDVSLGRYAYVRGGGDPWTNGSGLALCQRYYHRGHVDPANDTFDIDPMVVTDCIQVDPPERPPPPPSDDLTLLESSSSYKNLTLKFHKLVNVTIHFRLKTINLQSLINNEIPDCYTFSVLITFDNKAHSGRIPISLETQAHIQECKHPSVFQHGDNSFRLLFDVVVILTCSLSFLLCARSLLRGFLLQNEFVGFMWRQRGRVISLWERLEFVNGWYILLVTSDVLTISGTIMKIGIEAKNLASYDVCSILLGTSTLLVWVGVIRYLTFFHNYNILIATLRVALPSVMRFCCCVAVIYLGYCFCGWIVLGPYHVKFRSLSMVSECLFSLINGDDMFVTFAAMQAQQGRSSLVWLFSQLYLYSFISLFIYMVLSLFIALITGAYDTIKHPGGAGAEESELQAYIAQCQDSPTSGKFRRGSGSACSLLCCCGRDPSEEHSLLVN
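Calcium fluorescence in TRPML1-DL cells induced overnight with Tet: a 110 s read after compound pin addition, then a 110 s antagonist read after challenge with 54-4 at 4 uM final (EC80).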
TRPML1 agonist: agonists of human TRPML1 channel | Q9GZU1 | TRPML1-expressing cells, Ca2+ dye fluorescence, FDSS; host cell line not named in the record; reference of the full effect not given here | activation, % (no concentration beside the values) | actives 0.12% (n = 410,000) | AID 624414; in the data active = activation above about 50%; inconclusive = about 30% to 50%; inactive = below about 30%; also: 0% is about no effect; the text of the record puts the active cut at 80%
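Tet-induced TRPML1-DL cells, 1,500 per well, cultured overnight, were loaded with a no-wash Ca2+ dye for 45–90 min. Calcium fluorescence was recorded on the FDSS for 110 s after compound addition, before the EC80 agonist (4 uM 54-4) was added.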
D2 ag: activates the human D2 dopamine receptor; P14416; DiscoveRx PathHunter D2 beta-arrestin, luminescence, 90 min; 100% = 57 uM dopamine signal; activation, % (concentration not given with the values); actives 0.084% (n = 360,000); in the data active = activation above about 40%; inconclusive = about 15% to 40%; inactive = below about 15%; also: compound concentration not given in the record; the text of the record calls up to 30% inactive
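Agonist mode: compounds alone added to overnight-plated D2 PathHunter cells for 90 min at 37 C, with 57 uM final dopamine (EC100) defining full response. Beta-arrestin recruitment detected by chemiluminescent reagent, read after 1 h at ambient temperature.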
Six1-Eya2 blk: blocks human Six1 binding to Eya2; Q15475+O00167; AlphaScreen GST-Six1/His-Eya2 binding, biochemical; hits give low values; control for the full effect not named in the record; activity change, % (test concentration not listed); actives 0.56% (n = 360,000); AID 651725; in the data active = activity change below about -65%; inconclusive = about -30% to -65%; inactive = above about -30%; also: % is scaled to controls: 0 for no effect and ±100 for the full control effect; compound concentration not given in the record
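AlphaScreen with GST-Six1 and His-Eya2 (5X mix: 250 nM and 500 nM), glutathione donor and nickel acceptor beads; buffer 50 mM Tris pH 8.0, 300 mM NaCl, 1 mM TCEP; 1 h at 37 C in the dark.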
Numbers without * were called inactive; ? = inconclusive; . = no result given; [ ] = dose if it differs, or a comment.

compound	PINK1 modulator	D2 PAM	TRPML1 blocker	TRPML1 agonist	D2 ag	Six1-Eya2 blk
CC(C)(C)c1ccc(OCc2nnc(SCC(N)=O)n2N)cc1	-0.1%	5.3	-6.5	-0.8	-3.4	4.5
Cc1ccc(S(=O)(=O)N(CC(=O)N/N=C\c2cccs2)c2cccc3cccnc23)cc1	12.6%	-13.1	33.6	1.7	-2.3	-3.6
COc1cccc(NS(=O)(=O)c2ccc(-c3coc(C)n3)cc2)c1	-0.3%	-12.5	12.2	-1.6	3.9	0.9
CCCCn1c(=O)c2oc3ccccc3c2n(Cc2cccc(F)c2)c1=O	1.4%	.	-6.9	1.8	.	.
N#Cc1ccccc1NC(=O)C(=O)NCC(c1cccnc1)N1CCc2ccccc2C1 (stereo not given)	-1.0%	.	-5.4	-1.1	.	.
CCOc1ccc(Br)cc1-c1noc(-c2cccs2)n1	9.9%	2.9	7.4	-0.2	-9.8	9.5
CCCCNc1nc2ccccc2c2nc(-c3ccccc3)nn12	4.5%	.	-8.3	1.0	.	.
COc1ccc(-n2c(-c3ccccc3)c[n+]3c2CCC3)cc1	2.6%	-0.5	-6.8	-0.9	-0.2	-1.0
CCOc1ccccc1C(=O)N(C)Cc1cc2ccccc2[nH]c1=O	1.4%	-1.0	-9.8	-0.1	0.4	3.7
Cn1c(=O)c2cc(NC(=O)NCCc3cccs3)ccc2n1C/C=C/c1ccccc1	-0.1%	3.1	.	-0.5	13.6	-1.2
Cc1nc2sc(C(c3ccc(C(C)C)cc3)N3CCN(CCO)CC3)c(O)n2n1 (stereo not given)	-0.9%	-3.1	10.1	0.1	-0.6	0.5
Cc1cccc(C)c1NC(=O)N1C2CCC1CC(O)(c1cccnc1)C2 (stereo not given)	0.1%	2.8	6.4	-0.3	7.1	7.8
CC1CCC(NC(=O)c2ccc3c(c2)N(Cc2ccccc2F)C(=O)c2ccccc2S3(=O)=O)CC1 (stereo not given)	-0.2%	.	4.0	-0.1	.	.
CC1CCCC(C)N1C(=O)CSc1nnc(-c2cccs2)o1 (stereo not given)	.	-1.4	-7.3	0.1	-3.2	18.9
S=C(NCCc1ccccc1)Nc1ccc(Br)cc1	?	-11.5	22.4	0.6	-0.2	5.4
CCC1(C)Cc2ccccc2-c2nc3n(c(=O)c21)CCS3 (stereo not given)	6.0%	7.9	21.0	2.5	3.1	4.6
COc1ccccc1CC(=O)NC(=O)c1ccccc1O	0.6%	-7.1	3.6	-1.2	-3.8	-10.8
CCN(C[C@H]1N[C@@](C)(C(=O)OC)[C@H]2C(=O)N(C)C(=O)[C@@H]12)C(=O)COC	-1.8%	-3.4	8.7	0.7	-1.5	-0.5
COc1ccc(/C=N/OCc2ccccc2C#N)c(OC)c1	7.7%	-3.0	0.7	-0.7	0.4	12.9
COc1ccc(CNC(=O)C(OC(=O)c2nsc(Cl)c2Cl)C(C)C)cc1 (stereo not given)	0.6%	-18.5	-1.3	-0.4	-0.3	4.9
CCN(CC(=O)NCc1ccc2c(c1)OCO2)S(=O)(=O)c1ccc(F)cc1	-0.7%	-2.3	1.4	-0.3	-0.1	-3.6
CC(C)(C)OC(=O)C[C@H]1C/C=C\C[C@H](CC(=O)NCCO)C(=O)N[C@@H](Cc2ccccc2)COC1=O	0.0%	3.1	9.9	-0.7	0.8	11.5
CC(C(=O)NCc1ccc(F)cc1)n1ccc2cc(S(=O)(=O)N3CCCC3)ccc21 (stereo not given)	0.6%	-11.9	-16.0	2.2	0.2	-1.2
C=CCn1c(SCC(=O)c2ccc(CNC(C)=O)o2)nc2ccccc2c1=O	1.1%	-4.0	3.0	-0.8	-1.4	1.8
O=C1/C(=C/c2cccc([N+](=O)[O-])c2)CCc2ccccc21	-4.2%	-20.1	-0.5	-0.2	-6.7	-1.5
COc1ccc(C(=O)Nc2ccccc2-c2nnn(CC(N)=O)n2)cc1	7.4%	-9.3	-6.3	-0.5	-2.4	-8.8
COc1ccc(N(C(=O)CS(=O)CC(=O)Nc2ccc(F)cc2)C(C(=O)NC2CCCCC2)c2cccs2)cc1 (stereo not given)	-0.8%	-18.0	-0.4	-0.1	0.2	4.3
COC(=O)c1cc(Nc2nc3ccccc3nc2NS(=O)(=O)c2ccc(C)cc2)ccc1Cl	0.0%	.	-3.1	0.3	.	.
Cc1ccc(C)c(CN2C(=O)CSc3ccc(C(=O)NCC(C)CN4CCC(C)CC4)cc32)c1 (stereo not given)	0.2%	2.2	3.8	-0.3	2.3	19.4
CCCn1nnc(NCc2ccc(OCc3cccs3)c(OC)c2)n1	-0.8%	-5.1	-16.3	1.2	1.8	2.3
Cc1ccc(Cl)cc1NC(=O)c1cccc(OC(F)F)c1	9.1%[38.3 µM]	-6.3	6.3	0.4	-1.4	3.2
COC(=O)c1cn(Cc2c(C)cc(C)cc2C)nn1	6.4%	-6.5	19.0	0.9	-2.2	7.4
Cc1cccc(C)c1NC(=S)NC1CCCCC1	?	-29.7	6.1	-0.3	-4.8	-16.1
CSc1nc2ccc3nc(NC(=O)c4ccc(Cl)s4)sc3c2s1	4.0%	-5.0	6.7	-0.5	-5.5	-0.8
CC(SC(C)C(=O)NN=Cc1ccc(F)cc1)C(=O)NN=Cc1ccc(F)cc1 (stereo not given)	9.2%	-4.9	19.8	-0.6	3.6	2.7
Nc1cc(=O)[nH]c(SCC(=O)NNC(=O)c2ccccc2)n1	-1.3%	-19.2	20.1	-0.1	-4.5	-4.6
COCCn1nnnc1CN1CCC(Cc2ccccc2)CC1	-5.9%[38.3 µM]	-16.0	-15.0	-0.3	-0.8	-3.1
Cc1cc(C(=O)N/N=C2\CC(=O)c3ccccc32)c(C)n1-c1ccc(F)cc1	2.7%	-0.5	.	.	1.1	-12.5
CCCN1CC(O)=C(C#N)C1=O	1.6%	-16.6	-15.2	-1.1	-0.8	11.7
COc1ccccc1-n1c(-c2ccc(C)cc2)cn2c3c(=O)n(C)c(=O)n(C)c3nc12	0.6%	.	-8.6	0.4	.	.
COc1ccc(S(=O)(=O)N2CCOCC2)cc1NC(=O)CCNC(=O)c1ccc(Cl)cc1	-0.4%	3.3	2.0	1.4	0.9	0.8
CCCOc1cccc(C(=O)NC(=S)Nc2ccc(N3CCN(C)CC3)cc2)c1	-0.5%	0.3	11.8	0.1	-5.4	17.4
CC(C)C(=O)NC(=S)Nc1ccccc1F	-0.1%	-24.9	50.8	-0.3	-2.4	3.1
O=[N+]([O-])c1cccc(S(=O)(=O)NCCCn2ccnc2)c1	1.9%	1.1	24.0	0.2	1.5	1.3
C=CC[C@@H](CC(=O)N(CCO)Cc1ccccc1)C(=O)NCCOC(=O)[C@H](CC=C)CC(=O)OC(C)(C)C	-0.2%	-1.8	-3.8	-0.1	-0.9	18.0
O=C(NCc1ccccn1)C(=O)N/N=C/c1ccccc1O	-1.7%	-2.9	-0.7	-0.5	-4.3	-72.7*
CCCCNC(=O)Cn1c(=O)oc2cc(S(=O)(=O)N3CC(C)CC(C)C3)ccc21 (stereo not given)	5.2%	-6.6	-11.8	0.2	-2.3	5.7
CCOc1ccc(NC(=O)CCNC(=O)Cn2cnc3ccccc3c2=O)cc1	4.6%	-4.8	14.1	0.6	-0.3	3.3
CC(C)(C)OC(=O)N1CCC(C(=O)Nc2cccc(C(=O)N3CCOCC3)c2)CC1	4.5%	-26.1	-0.1	-0.1	-0.9	0.7
CCOC(=O)CN(Cc1sccc1C)C(=O)Nc1ccc(OCC)cc1	3.6%	-14.3	4.3	0.9	-4.6	9.6
COc1ccc(C(=O)Nc2cccc(S(=O)(=O)N(C)C)c2)cc1S(=O)(=O)N1CCOCC1	10.0%	-12.4	-8.9	-0.6	5.5	-1.6
Cc1ccc(C(=O)N/N=C\c2c(C)nn(-c3ccccc3)c2Cl)cn1	-0.6%	-8.8	-1.6	0.1	2.9	-6.3
CC(C)C1(C)C(=O)N=C2c3ccccc3C(=O)N21 (stereo not given)	-0.6%	-3.7	26.5	3.5	-2.2	4.4
CCN(CC)S(=O)(=O)c1cccc(C(=O)Oc2cccnc2)c1	-1.0%	-0.3	-5.4	0.2	0.4	-0.2
CC1=CC(c2ccccc2)n2nc(N3C(=O)CCC3=O)nc2N1 (stereo not given)	-1.3%	-1.3	-6.7	0.2	-1.9	-3.4
CCC(Sc1nc2c(cnn2-c2ccccc2)c(=O)[nH]1)C(=O)OC (stereo not given)	0.6%	-0.8	-2.8	-0.2	-5.6	-1.0
Cc1c(NC(=O)C2CC=CCC2C(=O)O)c(=O)n(-c2ccccc2)n1C (stereo not given)	3.1%	1.6	20.9	1.4	-0.7	-6.6
O=C(Cn1nc(C(F)(F)F)c2c1CCCC2)NCCN1CCOCC1	-12.0%[38.3 µM]	3.3	-13.4	-0.5	-0.8	6.4
CC(C)C[C@H]1CNC(=S)N1C[C@H]1CCCN1C[C@H](CC(C)C)N1C[C@H](Cc2ccc(O)cc2)N(CC2CCCCCC2)C1=S	?	-3.0	-5.2	-0.4	-3.0	-13.3
CC(=O)CCc1oc2c([N+](=O)[O-])cccc2c1-c1ccc(C)o1	-0.2%	8.7	-3.9	2.2	-16.3	-22.1

(list continues)
compound	PINK1 modulator	D2 PAM	TRPML1 blocker	TRPML1 agonist	D2 ag	Six1-Eya2 blk
COc1ccc(NC(=O)CCNC(=O)c2ccc([N+](=O)[O-])cc2)cc1S(=O)(=O)N1CCOCC1	0.2%	?	19.3	0.0	11.6	-0.3
CCOc1cccc2cc(-c3nnc(NCc4ccc5c(c4)OCO5)s3)c(=O)oc12	-1.8%	11.8	15.4	1.6	5.4	3.4
O=C(c1ccc2c(c1)OCO2)N1CCN(C(=O)c2ccco2)CC1	-0.5%[38.3 µM]	-3.8	1.9	-0.4	-1.7	-1.0
CCOC(=O)C1CCCN(CC(=O)Nc2c(C(=O)OC)[nH]c3ccccc23)C1 (stereo not given)	-2.2%	-36.9	-13.7	0.3	-2.9	-2.6
O=C1c2ccccc2C(=O)c2c1ccc1c(=O)n(-c3ccccc3)[nH]c21	-2.8%	2.1	31.3	0.0	2.9	2.2
CSc1ncccc1C(=O)Nc1ccc(OC(F)(F)F)cc1	1.4%	-1.4	-18.2	-0.3	-1.1	11.9
CCOC(=O)c1scc(-c2ccccc2)c1S(=O)(=O)Nc1ccccc1F	-1.3%	.	16.4	2.0	.	.
CC(=O)Nc1cccc(NS(=O)(=O)Cc2ccc(Cl)cc2)c1	-0.4%[38.3 µM]	5.0	-7.8	5.0	0.6	-0.6
COc1ccc(C(=O)CC(C(=O)O)c2ccc(OC)c(OC)c2)cc1OC (stereo not given)	-0.1%	-7.2	-5.8	-0.1	-9.6	-6.2
O=C(O)CC1S/C(=N/N=C/c2ccc(Br)cc2)N(c2ccccc2)C1=O (stereo not given)	-0.6%	-4.2	17.5	-0.7	-1.2	-1.0
Cc1ccc2nc(NC(=O)C3CSC4(C)CCC(=O)N34)sc2c1 (stereo not given)	0.0%	-4.9	-7.8	-0.7	-1.4	0.9

From PubChem
